# VDR inh: vitamin D3 receptor (human) inhibition. VDR-SRC2-3 peptide fluorescence polarization, 2 h. P11473. AID 504847. Potency, µM, for the others: max response, negative = inhibition, most hits filed as inhibitors. actives 0.93% (n = 400,000); active = well fitted inhibition curve with a large enough effect; inconclusive = small, poorly fitted or top-dose-only effect, or another doubt; inactive = no such curve, though single readings can be large or run the other way; also: series mostly up to about 120 µM
# Target sequence (P11473 whole entry, looked up): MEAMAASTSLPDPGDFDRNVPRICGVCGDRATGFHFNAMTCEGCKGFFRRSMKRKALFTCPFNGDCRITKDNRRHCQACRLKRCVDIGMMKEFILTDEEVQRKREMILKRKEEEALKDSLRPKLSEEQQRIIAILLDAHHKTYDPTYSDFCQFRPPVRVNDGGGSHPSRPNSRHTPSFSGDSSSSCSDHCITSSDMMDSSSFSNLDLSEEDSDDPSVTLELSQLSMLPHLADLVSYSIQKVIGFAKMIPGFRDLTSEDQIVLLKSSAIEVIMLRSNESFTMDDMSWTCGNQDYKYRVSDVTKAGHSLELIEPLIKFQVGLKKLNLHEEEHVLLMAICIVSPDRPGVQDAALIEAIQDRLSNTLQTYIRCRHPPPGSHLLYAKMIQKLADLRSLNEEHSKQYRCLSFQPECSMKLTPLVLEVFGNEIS
#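 VDR–SRC2-3 interaction, FP format. Cmpds 23 nl via pintool, brief spin, 2 h ambient incubation.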
# The depositor's hits bear a star; ? = inconclusive; & = joins results of further samples. % is scaled to controls: 0 for no effect and ±100 for the full control effect; potency is read from the fitted curve at half-maximal effect. A portion of the library (hit frequency here may not be typical).
# A first look:
mol	VDR inh
O=C(NCc1ccco1)C1CCCN(S(=O)(=O)c2cccc3nsnc23)C1 (stereo not drawn)	5%
CCCCCCCCn1ccc(=N)cc1	-14%
O=C(NC1CCCC1)c1ccc(Br)s1	-5%
CCOC(=O)c1c(NC(=O)COC(=O)Cn2cnc3ccccc32)sc2c1CCC(C)C2 (stereo not drawn)	-1%
CC(C)C(OC(=O)C1=Cc2ccccc2OC1)C(=O)NCC1CCCO1 (stereo not drawn)	-18%

# This part in full (from the top)
mol	VDR inh
O=C(NCc1ccco1)C1CCCN(S(=O)(=O)c2cccc3nsnc23)C1 (stereo not drawn)	5%
CCCCCCCCn1ccc(=N)cc1	-14%
O=C(NC1CCCC1)c1ccc(Br)s1	-5%
CCOC(=O)c1c(NC(=O)COC(=O)Cn2cnc3ccccc32)sc2c1CCC(C)C2 (stereo not drawn)	-1%
CC(C)C(OC(=O)C1=Cc2ccccc2OC1)C(=O)NCC1CCCO1 (stereo not drawn)	-18%
CCN1C(=O)c2ccccc2S(=O)c2ccc(C(=O)NC3CC3)cc21 (stereo not drawn)	-6%
COc1ccc(Cn2c(=O)c3oc4ccccc4c3n(Cc3ccc(Cl)cc3)c2=O)cc1	8%
O=C(Nc1cccc(NC(=O)c2cccnc2)c1)c1ccccc1	11%
CN(C(=O)CSc1nnc(-c2ccc([N+](=O)[O-])cc2)o1)C1CCCCC1	2%
O=C(OC1CCOC1=O)c1cc(S(=O)(=O)N2CCOCC2)c(Cl)cc1Cl (stereo not drawn)	-14%
OCC1OC(n2cnc3c(SCc4ccccc4)nc(F)nc32)C(O)C1O (stereo not drawn)	-3%
O=C(NC1CC1)c1ccc2c(c1)ncn2C1CCCC1	7%
O=C(CCc1c[nH]c2ccccc12)OCc1cccc([N+](=O)[O-])c1	0%
CCCCOC(=O)C1CN(c2ccccc2)N=C1C(=O)OCC (stereo not drawn)	1%
O=c1c2ccccc2nc(SCCN2CCOCC2)n1CCc1ccccc1	7%
Cc1c(N2C(=O)C3C4C=CC(C4)C3C2=O)c(=O)n(-c2ccccc2)n1C (stereo not drawn)	0%
CC(=O)N1c2ccc(S(=O)(=O)NCCC(=O)NC3CCCC(C)C3C)cc2CC1C (stereo not drawn)	-1%
CCC(=O)c1ccc(OCC(=O)OCC(=O)N2CCc3ccccc3C2)cc1	?
CCOC(=O)Cn1c(=O)n(C2CCCCC2)c2nc(-c3cccc(C)c3)nc(C(N)=O)c21	12%
O=C(NCCC(=O)N1CCC2(CC1)NCCc1[nH]cnc12)c1ccc(F)c(F)c1	11%
Fc1cccc(Nc2ncnc3c2cnn3-c2ccccc2)c1	-2%
COc1ccc(C(=O)NNC(=O)Cc2ccc(-c3ccccc3)cc2)cc1OC	-8%
CCOc1ccc(OCC)c(NC(=O)c2nnn(CC(=O)Nc3cc(C)cc(C)c3)c2N)c1	5%
CCN1CCN(C(=O)c2ccc(OC3CCN(CCc4ccccc4)CC3)cc2)[C@@H](C)C1=O	2%
CCN(c1ccccc1)S(=O)(=O)c1cccc(C(=O)OCC(=O)Nc2ccc(NC(C)=O)cc2)c1	-10%

# Reprinted from the part before: two compounds, then new ones.
mol	VDR inh
CCN1CCN(C(=O)c2ccc(OC3CCN(CCc4ccccc4)CC3)cc2)[C@@H](C)C1=O	2%
CCN(c1ccccc1)S(=O)(=O)c1cccc(C(=O)OCC(=O)Nc2ccc(NC(C)=O)cc2)c1	-10%
O=C(NC(=S)Nc1cc(S(=O)(=O)N2CCOCC2)ccc1O)c1ccco1	?
Cc1nc(C)c(-c2csc(Nc3ccc(O)c(C(=O)O)c3)n2)s1	?
CCCC(C)NC(=O)COC(=O)c1ccc2c(c1)C(=O)N(Cc1ccco1)C2=O (stereo not drawn)	19%
CCn1cc(C(=O)NCc2ccccc2)c(=O)c2cc(S(=O)(=O)N3CCc4ccccc4C3)ccc21	6%
O=C1CNC(=O)/C(=C\c2ccccc2)N1	-1%
COc1cccc(C(O)CC(N)=O)c1 (stereo not drawn)	-3%
Cc1ccc(C2=NN(C(=O)CNCCO)C(c3cccs3)C2)cc1 (stereo not drawn)	4%
CCOc1ccc(CNC(=O)c2ccc3nc(CC)c(CC)nc3c2)cc1	11%
Cc1ccc(C)c(NC(=O)c2cc(S(=O)(=O)NCCC3=CCCCC3)ccc2F)c1	-4%
Cc1ccc([C@@H]2[C@@H]3C(=O)N(C)C(=O)[C@@H]3[C@]3(C)C(=O)N(CC4CC4)CC(=O)N23)o1	-4%
O=C(Cc1ccc(-c2ccccc2)cc1)NCCS(=O)(=O)N1CCN(c2cccc(Cl)c2)CC1	0%
CC(C)C[C@H](NC(=O)c1[nH]cnc1C(=O)N[C@@H](Cc1ccccc1)C(=O)OC(C)(C)C)C(=O)OC(C)(C)C	6%
Cc1ccc(C(=O)Nc2ccc(OCc3ccccc3)cc2)s1	4%
COc1ccc(S(=O)(=O)N2CCCCC2)cc1NC(=O)c1ccc(CS(C)(=O)=O)cc1	-8%
CCCCSc1nnc(-c2ccc(NC(=O)CC)cc2)n1C	-9%
CCOc1cc(C(=S)N2CCCC2)ccc1OC(=O)Cc1ccc(F)cc1	2%
CCOC(=O)/C(=N\Nc1ccccc1)S(=O)(=O)c1ccccc1	-11%
Cc1ccc(-n2nc3c(=O)n(CC(=O)NCc4ccc(C)o4)nc(C)c3c2C)cc1	-5%
CCn1cc(C(=O)NCC2CCCO2)c(=O)c2cc(S(=O)(=O)N3CCCCC3)ccc21 (stereo not drawn)	-12%
O=C(O)c1cccc(-c2ccc3c(c2)OCO3)c1	?
Cc1ccc(CC(=O)Nc2nc3c(s2)CCCC3)cc1	-11%
COc1ccccc1NC(=O)CCSc1nnc(-c2ccc(O)cc2)o1	-6%
COc1ccc(C2/C(=C(\O)c3ccc4c(c3)OCCO4)C(=O)C(=O)N2CCCn2ccnc2)cc1 (stereo not drawn)	11%
c1ccc2[nH]c(-c3ccncc3)nc2c1	-16%
CSc1nc2ccc(Br)cc2[nH]1	10%
O=C1CC(NNc2ccccc2)C(=O)N1c1ccc(N2CCCCC2)cc1 (stereo not drawn)	?
C=C(c1ccccc1)c1ccccc1N	3%
COc1ccc2nc(NC(=O)c3ccccc3F)sc2c1	-6%
CCCCn1c(N)c(N(CCOC)C(=O)CCNC(=O)c2ccc(Br)cc2)c(=O)[nH]c1=O	6%
O=C(CNC(=O)c1ccccc1)NCc1nc2ccccc2[nH]1	-5%
CCN(CC)CCCNC(=O)Cn1cnc2sc(C)c(S(=O)(=O)N3CCN(c4ncccn4)CC3)c2c1=O	7%
Cn1cnnc1SCC(=O)Nc1ccc(Oc2ccccc2)cc1	-20%
O=C(Nc1c(F)cccc1F)c1ccc(-n2cncn2)nc1	-2%
CN(C)c1ccc(/C=C2\CCC/C(=C\c3ccccc3)C2=O)cc1	-6%
COc1ccc(-c2nc(CS(=O)(=O)CC(=O)NCc3ccccc3OC)c(C)o2)cc1	-21%
CN(Cc1ccccc1)C(=O)c1cccc(NC(=O)Cc2ccc(NC(=O)C3CCN(S(=O)(=O)c4cccc([N+](=O)[O-])c4)CC3)cc2)c1	-15%
CCC(C)(C)NC(=O)C(c1ccccc1)N(C(=O)c1csnn1)C1CC1 (stereo not drawn)	1%
Cc1cnc(NC(=O)CC(C)c2ccccc2)s1 (stereo not drawn)	-7%
COc1ccc([C@@H]2[C@@H]3C(=O)N(C(C)(C)C)C(=O)[C@@H]3[C@]3(C)C(=O)N(c4ccc(C(F)(F)F)cc4)C(=O)N23)cc1	9%
CCC(=O)Nc1ccc(NC(=S)NC(=O)/C=C/c2ccco2)cc1	5%
Nc1c(C(=O)Nc2nccs2)sc2nc(-c3cccs3)cc(C(F)(F)F)c12	30%
O=C(Nc1cccnc1)c1ccccc1-c1ccccc1	1%
Cc1ncc(CSc2nccc(=O)[nH]2)c(CO)c1O	-19%
C/C(CC(=O)N1CCN(C=O)CC1)=N\NC(=O)c1cccc([N+](=O)[O-])c1	6%
Cc1noc(C)c1CSc1ncnc2sc(C)c(C)c12	0%
COc1ccc(OC)c(S(=O)(=O)NCC(c2ccco2)N2CCc3ccccc32)c1 (stereo not drawn)	10%
O=C(c1ccc(-c2ccccc2)cc1)C1CCCN(C(=O)c2cncs2)C1 (stereo not drawn)	-23%
Cc1ccc(NC(=O)CCc2ccc(S(=O)(=O)N3CCOCC3)cc2)c(Cl)c1	-11%
CN(Cc1c(F)cccc1Cl)C(=O)c1cccc(S(=O)(=O)NCc2ccccc2)c1	-8%
COc1ccc(-c2cc(-c3cccs3)c(C#N)c(SCC(=O)NCc3ccco3)n2)cc1	8%

# As entered above.
# In VDR inh, `O=C(Nc1c(F)cccc1F)c1ccc(-n2cncn2)nc1` is entered as -2%
# In VDR inh, `O=C(CNC(=O)c1ccccc1)NCc1nc2ccccc2[nH]1` is entered as -5%
# In VDR inh, `COc1ccc(-c2nc(CS(=O)(=O)CC(=O)NCc3ccccc3OC)c(C)o2)cc1` is entered as -21%

# Continued.
mol	VDR inh
CC(C)c1ccc(-c2nnc(SCC(=O)NC3CC3)n2C)cc1	4%
CCCN(C(=O)c1cn(CC(C)C)c(=O)c2cc(OC)c(OC)cc12)c1cccc(C)c1	-6%
N#Cc1c(SCc2ccc(Cl)cc2)sc(C(=O)c2ccccc2)c1N	3%
O=C(C1CCN(S(=O)(=O)c2ccc(Cl)c(C(F)(F)F)c2)CC1)N1CCC1	-5%
O=C(Nc1ccccc1)Nc1nncs1	-10%
CCC12CN(C(=O)c3ccc([N+](=O)[O-])cc3)CC(CC)(CN(C(=O)c3ccc([N+](=O)[O-])cc3)C1)C2=O	-6%
C1CN(CC2CCN(c3nc4nonc4nc3N3CCSCC3)CC2)CCO1	-13%
O=S(=O)(Nc1ccccc1)c1ccc(-c2csnn2)cc1	11%
COc1ccc(OC(=O)c2nc(SCc3ccccc3C)ncc2Cl)cc1	13%
CCOC(=O)c1ccc(S(=O)(=O)N2CCN(Cc3cc4c(cc3O)OCO4)CC2)cc1	-7%
O=C(NCc1ccccc1)c1nc[nH]c1C(=O)N1CCc2ccccc2C1	-2%
CCN1CCN(C(c2ccc(F)cc2)c2nnnn2Cc2cccs2)CC1 (stereo not drawn)	11%
O=C(N/N=C/c1c[nH]c2ccccc12)c1ccn(Cc2ccc(Cl)cc2Cl)n1	-15%
O=C(Cn1c(=O)n(Cc2ccc3c(c2)OCO3)c(=O)c2oc3ccccc3c21)Nc1ccc(F)cc1	2%
Cc1ccnc(-n2c(C)cc(/C=N/NC(=O)COc3cccc4cccnc34)c2C)c1	-10%
O=C(CSc1nc2ccccc2c(=O)n1-c1ccccc1)NCc1ccco1	7%
CCC1(CC)Cc2ccccc2C(CC(=O)N2CCOCC2)=N1	-21%
Cc1ccc([N+](=O)[O-])cc1NC(=O)c1ccccc1	-4%
COCC(=O)NC1CC(C)(C)Cc2c1cnn2-c1ccc(F)cc1 (stereo not drawn)	-11%
Cc1ccc(C)c(OCC(=O)Nn2c(C)nc3ccccc3c2=O)c1	-5%
Cc1ccc(NC(=O)NC2CC(=O)N(c3ccc4c(c3)OCCO4)C2)cc1F (stereo not drawn)	-25%
CCOc1cc(/C=C2\C(=N)N3N=C(C)SC3=NC2=O)ccc1OCCOc1ccccc1	21%
O=C(C1CCN(S(=O)(=O)c2ccccc2F)CC1)N1CCc2ccccc2C1	-5%
CCC(C)C1C(C#N)=C(N)Oc2n[nH]c(C)c21 (stereo not drawn)	-10%
CCOc1ccc(NC(=S)N=Nc2c(O)[nH]c3ccccc23)cc1	4%
COc1cccc(COc2ccc3c(C)cc(=O)oc3c2)c1	-9%
O=C(NNC(=O)C12CC3CC(CC(C3)C1)C2)c1cccc([N+](=O)[O-])c1	-2%
O=C(c1ccc(Cl)s1)N1CCN(c2ccccc2)CC1	5%
COc1cccc([C@@H]2Oc3ccc(OC)cc3C[C@H]2OC(=O)NCc2ccco2)c1	-3%
Cc1occc(=O)c1OC(=O)Nc1ccccc1	-7%
CC1=C(N2CCCCC2)CCC1=O	-15%
COc1ccc(C2=NOC(C(=O)N(C)Cc3ccccc3)C2)cc1 (stereo not drawn)	12%
COC(=O)c1cccc(NC(=S)Nc2ccc(Cl)c(Cl)c2)c1	5%
COc1ccc(NS(=O)(=O)c2cccc(NC(=O)NCCCl)c2)cc1	2%
CC1NC(=S)N(C2CCCCC2)C1=O (stereo not drawn)	-6%
Cc1cc(NC(=O)CSc2nnc(-c3ccoc3C)o2)no1	2%
c1ccc(OCc2ccc(CCCN3CCOCC3)cc2)cc1	-7%&-1%
CCCNc1nc2nc3ccccn3c(=O)c2cc1C(=O)NCCN1CCOCC1	1%
Cc1c(CC(=O)O)c(=O)oc2c(C)c(OCc3ccc(F)cc3F)ccc12	-8%
CC(C)Cc1ccc(CN2CCCC(NC(=O)c3cccc(-n4cnnc4)c3)C2)cc1 (stereo not drawn)	-5%
COc1ccc(/C=C/C(=O)c2ccc(NC3=NCCCS3)cc2)cc1OC	-24%
CCOC(=O)c1ccccc1NC(=O)c1ccc(NS(C)(=O)=O)cc1	0%
O=C(c1ccccc1F)N1CCN(c2ccccc2F)CC1	-24%
CC(=O)N1CCN(c2ccc(NC(=O)c3cccc(OCc4ccccc4)c3)cc2)CC1	-12%
O=C(COC(=O)c1ccccc1NCCO)NCCc1ccccc1	1%
CC1(c2ccc(Cl)cc2)NC(=O)N(CC(=O)NC2CCCCC2)C1=O (stereo not drawn)	-17%
O=C1c2ccccc2NC(c2ccc(Br)o2)N1O (stereo not drawn)	-13%
CCN1C(=O)c2cccc3c(S(=O)(=O)NCC4CCCO4)ccc1c23 (stereo not drawn)	-19%
CCn1c(=N)n(CCOc2ccc(OC)cc2)c2ccccc21	-8%
CCOC(=O)c1c(C)c(C(=O)N(C)C2CCCCC2)c(C)n1C	-2%
O=C(Cc1ccc(Br)cc1)NCCCn1ccnc1	-7%

# Screening data as filed in PubChem BioAssay.
